Screens: PubChem BioAssay, ICCB-Longwood Screening Facility, Harvard Medical School
KSHV LANA nucl: inhibitors of KSHV LANA binding to nucleosomes | FITC-LANA1-23 / chicken nucleosome fluorescence polarization; hits give low values | z-score (no concentration beside the values) | 0.3% of 51,000 active | AID 720717;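 active means both repeat wells score below -2 in polarization z-score versus plate sample wells, excluding overly bright wells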;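 further: 100 nL library stock added to about 30 µL; numbers are from one replicate; some results filed as inactive read as strong as hits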
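Assay system: purified chicken nucleosomes with FITC-labelled LANA N-terminal peptide (1-23) / Probe or stimulus: 50 nM FITC-LANA1-23 probe / Compound dosing: pin-transferred compound, 100 nL / Times: compound with peptide–nucleosome mix 10–45 min at room temperature / Technique: fluorescence polarization, 480 nm excitation, 535 nm parallel and perpendicular emission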
BasE inh: blocks the Acinetobacter baumannii siderophore enzyme BasE. purified BasE, fluorescence polarization binding displacement. inhibition, % (test concentration not listed). 0.1% of 84,000 active;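 active means both replicates above 25% with normal brightness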;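 further: 0% = negative plate control signal and 100% = positive plate control signal; stock transfer was 100 nL into about 30 µL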
The depositor's hits bear a star; / = not tested or not shown; & = joins results of further samples. Only part of the results is shown; rates above refer to the full screens.

smiles	BasE inh	KSHV LANA nucl
C/C=C(/C)C(=O)O[C@@H]1[C@H](OC(C)=O)[C@@]2(CO)C(CC1(C)C)C1=CCC3[C@@]4(C)CC[C@H](O[C@@H]5O[C@H](C(=O)O)[C@@H](O[C@@H]6O[C@H](CO)[C@@H](O)[C@H](O)[C@H]6O)[C@H](O)[C@H]5O[C@@H]5O[C@H](CO)[C@@H](O)[C@H](O)[C@H]5O)[C@](C)(CO)C4CC[C@@]3(C)[C@]1(C)C[C@H]2O (stereo partly specified)	2.7	0.71
Cc1cc2c(cc1S(=O)(=O)NC1CCCCCCC1)OCC(=O)N2	1.3	-1.2
CCc1ccc(C(=O)CN2C(=O)CN(C)C2=O)cc1	-1.6	/
CCc1nc2ccccc2c(C(=O)OCC(=O)Nc2ccc(S(=O)(=O)N3CCOCC3)cc2)c1C	1.9	/
O=C(O)c1nn(-c2ccc(Cl)cc2Cl)c(=O)cc1O	2.2	-0.49
COc1ccccc1NCC(=O)N/N=C1/CCCCC1C (stereo unspecified)	0.0	0.3
Cn1c(O)c(C=Nc2cccc3ccccc23)c2ccccc21	7.2	/
CC1(C)C2CC[C@](C)(C2)C1NC(=O)C1CCCCC1 (stereo partly specified)	3.8	/
COc1ccc(C2=NN3C(=O)c4c(ccc(OC)c4OC)C3C2)cc1 (stereo unspecified)	2.1	0.58
NCc1cc(C2CC2)n[nH]1	0.6	-0.73

Later entries
smiles	BasE inh	KSHV LANA nucl
O=C(O)C1C2C3C=CC(C3)C12 (stereo unspecified)	1.5	-0.045
O=c1[nH]c(=O)n(C2C[C@H](O)[C@@H](CO)O2)cc1C(F)(F)F (stereo partly specified)	-0.3	0.89&1.6
Oc1cc(O)c2ncccc2c1	4.3	-0.85
Cc1ccc2nc(/C(C#N)=C\C3CC4C=CC3C4)[nH]c2c1 (stereo unspecified)	-2.3	1.8
CON(C)c1ncnc2scc(-c3ccc(C)cc3)c12	0.9	/
Cn1c(=O)n(C)c2cc(/C=N/NC(=O)Nc3ccccc3)ccc21	7.5	-0.17
CCOC(=O)N1c2ccccc2C=CC1OCC (stereo unspecified)	-0.2	/
N#CC(C#N)=C1CCc2ccccc21	3.4	0.21
Cc1c(C(=O)Nc2ccccc2Cl)oc2c1C(O)CC(C)(C)C2 (stereo unspecified)	1.3	0.28
O=C1CC(NNc2ccccc2)C(=O)N1 (stereo unspecified)	1.3	-0.71

New compounds follow
smiles	BasE inh	KSHV LANA nucl
COc1cc(S(=O)(=O)N2CCN(c3c(C)cc(C)cc3C)CC2)ccc1F	0.6	-0.33
NC(=O)CSc1ncccc1C(=O)O	0.3	/
Cc1cccn2c(=O)c(/C=N/O)c(Nc3ccc(Cl)cc3)nc12	2.0	-0.35
O=C1CCCC2=C1C(c1ccncc1)Nc1ccccc1N2 (stereo unspecified)	6.4	-0.077
O=C(CSC1=NC(=O)C(c2ccccc2)C(=O)N1)NC1CCCCC1 (stereo unspecified)	-1.1	/
Cn1c(O)c(N=NC(=O)CNC(=O)c2ccccc2)c2ccccc21	4.2	/
CC(C)CNC(=O)c1cc2sccc2n1Cc1ccccc1	3.7	-0.38
NC(=O)c1ccccc1Sc1ccccc1C(N)=O	1.8	-0.18
FC(F)(F)c1cc(Cl)c2nc(-c3n[nH]c(=S)o3)cn2c1	1.3	-0.5
CCCCC(=O)Nc1ccc(I)c(C)n1	0.3	-0.19

The list goes on.
smiles	BasE inh	KSHV LANA nucl
COc1ccc(-c2noc(CSCC(=O)O)n2)cc1OC	0.5	0.13
O=C(CCc1ccccc1)NCc1ccccn1	2.1	/
O=C(c1ccc(S(=O)(=O)N2CCOCC2)o1)N1CCOCC1	0.4	-0.46
Cc1cc(NC(=O)CN2C(=O)CCC2=O)no1	0.7	-0.58
CC(C)(Oc1ccc(Cl)cc1)C(=O)Nc1ccc(Cl)cn1	0.2	0.006
c1ccc(Oc2cnc3ccccc3n2)cc1	/	0.31
Cc1ccn2c(=O)c(NC(=O)c3ccccc3)cnc2c1	-1.9	0.41
CCc1ccc(-c2cc(C)no2)cc1S(=O)(=O)N1CCN(C2CCCCC2)CC1	-3.8	/
CCOC(=O)C1=NN(C(=O)COc2ccccc2)C(O)(c2ccc(Br)cc2)C1 (stereo unspecified)	1.1	-0.46
CC1CCCCN1C(=O)COc1ncnc2sccc12 (stereo unspecified)	-1.0	/

Single records, from the list above. Order of values: BasE inh, KSHV LANA nucl
`CCc1ccc(-c2cc(C)no2)cc1S(=O)(=O)N1CCN(C2CCCCC2)CC1` is entered as -3.8, /
`O=C(CCc1ccccc1)NCc1ccccn1` is entered as 2.1, /
`Cc1ccn2c(=O)c(NC(=O)c3ccccc3)cnc2c1` is entered as -1.9, 0.41

Further compounds.
smiles	BasE inh	KSHV LANA nucl
O=C(CC1(O)C(=O)Nc2ccccc21)c1ccccc1O (stereo unspecified)	-0.8	-0.88
CCOC(=O)C1C(=O)NC(N2CCOCC2)=NC1c1ccccc1 (stereo unspecified)	1.8	-1.6
O=C(Nc1ccccc1)Nc1ccccc1N1CCOCC1	2.2	0.49
COc1ccc(/C=C/C(=O)N2CCCCC2)cc1OC	0.5	/
CC1CCN(C(c2cccs2)c2nnnn2Cc2ccccc2)CC1 (stereo unspecified)	-0.8	0.26
OC(c1ccccc1)(c1ccccc1)C1CCN(C(=S)NCc2ccco2)CC1	-4.4	1.8
c1cncc(CSc2ccc3nnc(-c4cccnc4)n3n2)c1	1.2	0.82
Cc1occc1C(=O)N=Nc1c(O)n(Cc2ccccc2Cl)c2ccccc12	-0.4	/
O=c1ccn(-c2ccc(F)cc2)nc1-c1ccn[nH]1	-1.8	/
CCOC(=O)c1c(C(=O)CSc2ncc(-c3ccc(F)cc3)n2Cc2ccco2)sc2c1CCCC2	2.0	0.11

(further entries)
smiles	BasE inh	KSHV LANA nucl
Cc1cccc(NC(=O)/C=C/c2ccccc2)c1	0.2	/
O=S(=O)(c1ccc(N=C2NN=C(c3cc(F)ccc3F)CS2)cc1)N1CCOCC1	-1.1	/
COC(=O)c1nc2n(n1)C(c1cc(OC)c(OC)c(OC)c1)C=C(c1cccc(OC)c1)N2 (stereo unspecified)	0.1	-0.79
O=C(N[C@@H](Cc1ccccc1)C(=O)OCc1ccccc1)c1ccco1	1.5	/
CN(C)/C=N/c1nc2ccccc2s1	-0.8	/
COC(=O)C1=CNC=C(C(=O)OC)C1c1cccc(OC)c1	1.8	-1.1
CN(C)S(=O)(=O)c1ccc(N2CCCC2)c(C(=O)OCC(=O)NCc2ccc3c(c2)OCO3)c1	0.6	/
CCc1cc2c(SCC(N)=O)ncnc2s1	-0.3	2.8
Cn1nc(-c2ccc(C(=O)Nc3ccc(Cl)cc3)s2)cc1C(F)(F)F	0.0	/
COc1ccc(C(=O)OCc2ccccc2F)c(OC)c1OC	2.3	/

(further entries)
smiles	BasE inh	KSHV LANA nucl
COCCn1c(SCC(=O)C(F)(F)F)nnc1-c1ccncc1	1.6	/
COc1ccccc1N1CCN(/C=C2/SC(=S)NC2=O)CC1	2.2	0.84
N#CC1=C(N)Oc2c(c(=O)oc3ccccc23)C12C(=O)Nc1ccccc12 (stereo unspecified)	-3.6	-0.52
CC(C)(C)S(=O)(=O)c1ccc(C(=O)O)s1	1.3	/
O=c1[nH]cnc2scc(-c3cccs3)c12	-2.6	0.42
CCc1onc(C)c1C(=O)Nc1ccc2c(c1)OCO2	-0.5	/
CCOc1ccc2ncc(C(=O)c3ccc(OC)cc3)c(N3CCN(C)CC3)c2c1	-2.4	-0.49
O=C(O)c1ccc(N2CC3CC(C2)c2cccc(=O)n2C3)c(NS(=O)(=O)c2cccc(C(F)(F)F)c2)c1 (stereo unspecified)	1.5	-0.057
CN(C)C(=O)Cn1nc(-c2ccccc2)c2ccccc2c1=O	2.2	-0.48
O=C(CSc1ccc(Cl)cc1)N=C1NC(=O)CS1	-4.2	-1.2

Some values from the list.
In BasE inh, `O=c1[nH]cnc2scc(-c3cccs3)c12` has -2.6
In BasE inh, `COCCn1c(SCC(=O)C(F)(F)F)nnc1-c1ccncc1` has 1.6
In BasE inh, `O=C(O)c1ccc(N2CC3CC(C2)c2cccc(=O)n2C3)c(NS(=O)(=O)c2cccc(C(F)(F)F)c2)c1` (stereo unspecified) has 1.5

Further records
smiles	BasE inh	KSHV LANA nucl
COc1ccc(CNn2c(C)n[nH]c2=S)cc1	0.7	1.2
NC(=O)c1ccc(Oc2ncc(C(F)(F)F)cc2Cl)cc1	/	-1.5
CC1Sc2nnc(Cc3ccc(Br)cc3)n2N=C1c1ccc(NS(C)(=O)=O)cc1 (stereo unspecified)	-2.0	/
O=C(Nc1sc2c(c1-c1nc3ccccc3s1)CCCC2)C1=COCCO1	1.4	-1.2
N=c1c(S(=O)(=O)c2ccccc2)cc2c(=O)n3ccccc3nc2n1Cc1cccnc1	-0.6	0.41
O=C(N/N=C/C=C/c1ccco1)c1ccccc1F	0.6	-1.2
CCOC(=O)CN(C)c1nc(-c2ccc(OC)c(OC)c2)cs1	0.2	-1
O=C(c1ccc(Cl)cc1)N(c1ccccn1)C1CCCCC1	0.2	/
N#Cc1cc2cc3c(cc2nc1N1CCCN(C(=O)c2ccccc2)CC1)OCO3	1.5	-0.37
CNc1nc(Oc2ccc(=O)n(C)n2)nc(SC)n1	1.3	-0.27

Continued, overlapping the part above by two compounds.
smiles	BasE inh	KSHV LANA nucl
N#Cc1cc2cc3c(cc2nc1N1CCCN(C(=O)c2ccccc2)CC1)OCO3	1.5	-0.37
CNc1nc(Oc2ccc(=O)n(C)n2)nc(SC)n1	1.3	-0.27
Cc1ccccc1Cn1cnc2ccccc21	1.0	0.31
CC(=O)OCc1nc2ccccc2s1	-0.5	-0.14
Cc1cccc(-c2nc3ccccc3o2)c1	3.2	0.41
COCCN=Cc1cc(Br)cc(Br)c1O	4.2	/
O=C(c1ccc(CS(=O)Cc2cccc(Cl)c2)o1)N1CCN(Cc2ccccc2)CC1 (stereo unspecified)	-0.2	-0.39
CCN(CC)c1ccc(NS(=O)(=O)c2ccc(F)cc2)cc1	4.8	/
C/C(Cn1c(=O)oc2ccccc21)=N\OC(=O)c1ccc(Cl)cc1	1.2	-0.16
N=c1sccn1CC(=O)NC(=O)NC1CCCC1	-5.0	/
Cc1ccc(-c2nnc(NCc3ccco3)c3ccccc23)cc1C	-0.9	/
CC(C(=O)NCC1CCCCC1)N1CCN(c2ccc(F)cc2)CC1 (stereo unspecified)	1.3	/

(more compounds)
smiles	BasE inh	KSHV LANA nucl
Cc1sc2nc(CSCC(=O)NC(=O)c3cccn3C)[nH]c(=O)c2c1C	-4.7	/
COc1ccc(-c2nc3c(n2O)CCC/C3=N\O)cc1	3.6	-0.63
CCOC(=S)SCc1cn2cccnc2n1	1.3	/
CC1CCCCC1NC(=O)COC(=O)c1ccc(O)cc1 (stereo unspecified)	2.5	/
CCCSCCCn1cnc2c([nH]c3cc(OC)ccc32)c1=O	-1.4	-0.4
CCc1cc2c3c([nH]c2cc1S(=O)(=O)Nc1cccnc1)CCCC3=O	2.0	0.091
Cc1ccc(-c2n[nH]c(=S)n2CCC(=O)O)cc1	-0.1	/
COc1cccc(-c2noc(NC3CCN(Cc4ccccc4)CC3)n2)c1OC	0.9	-0.5
O=C(CCc1ccccc1)N=Nc1c(O)[nH]c2ccccc12	3.2	-0.54
O=S(=O)(Nc1nc2ccccc2nc1SCCO)c1cc(F)ccc1F	1.1	/

The listing continues:
smiles	BasE inh	KSHV LANA nucl
NC(=O)c1ccsc1NC(=O)Cc1c[nH]c2ccccc12	-2.4	/
CC(C)N(Cc1nc(-c2ccccc2)no1)C(=O)c1cccs1	-0.7	-0.52
COC(=O)CC1SC(=O)NC1=Nc1cccc(C)c1 (stereo unspecified)	-2.5	-0.33
CC(C)(C)c1ccc2c(c1)CN(c1ccc(F)cc1)CO2	0.1	0.97
COC(=O)c1ccc(COC(=O)CNC(=O)C23CC4CC(CC(C4)C2)C3)o1	1.1	/
COCCSc1nnc(NS(=O)(=O)c2ccccc2)s1	1.7	0.15
Cc1csc(=O)n1CC(=O)OCC(=O)c1ccc(Cl)s1	0.5	/
CCCN1C(=O)/C(=N\OCC(=O)Nc2cccc(Cl)c2)c2ccccc21	-1.3	/
CCC(CC)C(=O)Nc1ncc2c(n1)CC(C)CC2=O (stereo unspecified)	-0.3	-0.58
COc1nc(-c2ccccc2)nnc1C(F)(F)F	/	-0.95

Next records.
smiles	BasE inh	KSHV LANA nucl
O=C(CCCc1ccccc1)NN1CCOCC1	0.6	-1.1
NC(=O)Cc1cc(=O)[nH]c(=S)[nH]1	1.9	/
CCOC(=O)C1CCN(C(=O)c2cccs2)CC1	-0.1	0.78
Cc1ccc(-n2c(CCC(=O)OCC(=O)Nc3cc(C)on3)nc3ccccc3c2=O)cc1	-2.0	/
C=CCN1C(=O)C(=Nc2ccc(C)c(Cl)c2)c2ccccc21	/	-0.62
O=c1[nH]c2cc3c(cc2cc1C(c1nnnn1C1CCCC1)N1CC=C(c2ccc(F)cc2)CC1)OCO3 (stereo unspecified)	-3.5	1.4
COc1ccc(CN2CCOCC2)cc1C	-3.0	0.75
N#Cc1cc(C(=O)c2ccco2)c2nc3ccccc3n2c1N	9.8	/
O=C(O)CC(c1ccccc1)N1C(=O)c2ccccc2C1=O (stereo unspecified)	3.9	/
CSc1nc(C)nc(N/C=C(\C#N)C(=O)C2CC2)n1	-1.4	0.29
CC(C)c1cc(C(=O)N/N=C/c2ccccc2)n[nH]1	-2.6	-0.18
CCn1c2ccccc2c2cc(NC(=O)NCc3noc4ccccc34)ccc21	2.8	0.84
